Sa growth inh: S. aureus growth inhibition at 42 and 30 °C, primary screen, LtaS inhibitor project, RN4220, two temperatures; OD600, 20 h, 42 °C; hits give low values; relative growth, % (concentration not given with the values); 170,000 compounds, 0.53% hits; AID 720641, 2013;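 active = growth at 42 °C up to 50% and 20 or more points under that at 30 °C, or under 10% at both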;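 note: 300 nL library stock went into each well; scaled to the means of positive and negative controls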
GIV Gai3 FP: inhibitors of GIV peptide binding to Galpha-i3, primary screen, biochemical, fluorescence polarization, FITC-GIV GBA peptide, rat Galphai3; Guanine nucleotide-binding protein G(i) subunit alpha-3 (Rattus norvegicus), P08753; 90 min; hits give low values; scaled: aluminum fluoride 0%, vehicle 100%; percent of control (FP), % (test concentration not listed); 210,000 compounds, 0.42% hits; AID 1224905, 2016;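 active = replicate mean at 85% of control or lower, very high polarization wells dropped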;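 note: wells of about 15 µL received 100 nL stock; the first replicate is given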
Target sequence (P08753 whole entry, looked up): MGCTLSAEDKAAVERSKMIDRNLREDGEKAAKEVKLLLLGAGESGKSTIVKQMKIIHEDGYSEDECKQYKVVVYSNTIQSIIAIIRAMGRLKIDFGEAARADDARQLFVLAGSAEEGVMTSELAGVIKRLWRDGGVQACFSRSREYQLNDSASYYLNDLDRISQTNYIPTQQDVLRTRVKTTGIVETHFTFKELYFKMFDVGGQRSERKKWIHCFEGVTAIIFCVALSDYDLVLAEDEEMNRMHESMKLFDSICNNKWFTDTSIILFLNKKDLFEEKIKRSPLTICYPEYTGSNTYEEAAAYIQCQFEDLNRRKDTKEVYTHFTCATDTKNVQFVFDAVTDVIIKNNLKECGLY
HCMV UL50-53 inh: inhibitors of HCMV UL50-UL53 interaction, biochemical, HTRF; HCMV UL50-UL53 nuclear egress complex (human cytomegalovirus); normalized percent inhibition; inhibition, % (no concentration beside the values); 190,000 compounds, 0.15% hits; AID 1918969, 2023;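 active = both replicates at 50% or more, plus weaker picks with an unusually low signal ratio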;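 note: stock transfer was 100 nL into about 20 µL; 0% = negative control wells and 100% = wells with untagged competitor protein; inactives centre near -12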
Sa growth inh second temp: further read-out of Sa growth inh, marked with its call; relative growth, %; measured here: growth at 30 °C;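 optical density after 20 h as mean of two plates; 100% = untreated growth and lower means inhibition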
Numbers without * were called inactive; / = no result given; & = joins results of further samples. The order is random; 0.79% or so of the library scored in one or more.

item	molecule	Sa growth inh	Sa growth inh second temp	GIV Gai3 FP	HCMV UL50-53 inh
1	O=C(CSc1nc(=O)n2ccccc2n1)NC1CCCC1	91	86	100	-29
2	Cc1cc(CSC(=N)N)c(C)cc1CSC(=N)N	97	104	101	-2
3	CN(C)C(=O)c1ccc2c(c1)N(CC(=O)N1CCc3ccccc3C1)C(=O)CO2	/	/	100	-23
4	Cc1ccc(OCC(=O)Nc2ccc(Cl)c(-c3nc4ncccc4o3)c2)c(C)c1	102	87	102	/
5	O=C(COC(=O)c1ccco1)NCC1CCCO1 (stereo not given)	79	81	98	-17
6	CCCCNc1cc(C)nc2c(-c3ccc(F)cc3)cnn12	/	/	99	16
7	COCc1cc(C(C)(C)C)nc(N)n1	106	88	/	3
8	COc1ccc(NC(=O)C(C)n2cccc2)cc1 (stereo not given)	90	82	98	/
9	O=C(NC1CCCc2ccccc21)C1CCN(c2cc(-c3ccccc3)ncn2)CC1 (stereo not given)	/	/	106	-33
10	O=C(Nc1ccc2c(c1)C(=O)NC2=O)c1ccccc1	105	94	105	-18

In the list so far, six have a carbonyl joined to an NH by a bond outside any ring:
item	molecule	Sa growth inh	Sa growth inh second temp	GIV Gai3 FP	HCMV UL50-53 inh
1	O=C(CSc1nc(=O)n2ccccc2n1)NC1CCCC1	91	86	100	-29
4	Cc1ccc(OCC(=O)Nc2ccc(Cl)c(-c3nc4ncccc4o3)c2)c(C)c1	102	87	102	/
5	O=C(COC(=O)c1ccco1)NCC1CCCO1 (stereo not given)	79	81	98	-17
8	COc1ccc(NC(=O)C(C)n2cccc2)cc1 (stereo not given)	90	82	98	/
9	O=C(NC1CCCc2ccccc21)C1CCN(c2cc(-c3ccccc3)ncn2)CC1 (stereo not given)	/	/	106	-33
10	O=C(Nc1ccc2c(c1)C(=O)NC2=O)c1ccccc1	105	94	105	-18

4 structures already listed, ordered by count of non-hydrogen atoms, highest first:
item	molecule	Sa growth inh	Sa growth inh second temp	GIV Gai3 FP	HCMV UL50-53 inh
3	CN(C)C(=O)c1ccc2c(c1)N(CC(=O)N1CCc3ccccc3C1)C(=O)CO2	/	/	100	-23
1	O=C(CSc1nc(=O)n2ccccc2n1)NC1CCCC1	91	86	100	-29
10	O=C(Nc1ccc2c(c1)C(=O)NC2=O)c1ccccc1	105	94	105	-18
7	COCc1cc(C(C)(C)C)nc(N)n1	106	88	/	3

Later entries
item	molecule	Sa growth inh	Sa growth inh second temp	GIV Gai3 FP	HCMV UL50-53 inh
11	CSc1cccc(NC(=O)Cn2cnc(S(=O)(=O)N3CCc4ccccc43)c2)c1	112	87	107	-3
12	O=C(NCCNc1cccc2ccccc12)c1ccco1	99	93	/	-30
13	C/C=C(\C)C(=O)Nc1nncs1	108	94	105	/
14	Cc1ccc(C)c2nc(SCC(=O)NC3CCCCC3)c(C#N)cc12	134	89	104	-13
15	CC(=O)N1c2ccccc2NC2=C(C(=O)CC(c3ccccc3)C2)C1c1ccc(C)cc1 (stereo not given)	/	/	103	-11
16	CC1Cc2ccccc2N1Cc1nc2ccccc2c(=O)[nH]1 (stereo not given)	99	96	/	-2
17	CCCNc1nc(Cl)nc(NCCC)n1	95	89	/	-9
18	Cn1c(=O)c(-c2noc(CCC(=O)NC3CC3)n2)nn(-c2ccc(F)cc2)c1=O	/	/	108	-108
19	N#C/C(=N\Nc1ccc(F)cc1)C(=O)NCC1CCCO1 (stereo not given)	93	94	98	-57
20	OC(CON=C1c2ccccc2-c2ccccc21)Cn1nnc2ccccc21 (stereo not given)	92	77	103	-24

Just Sa growth inh, HCMV UL50-53 inh and Sa growth inh second temp, for some of the entries so far:
item | compound | Sa growth inh | HCMV UL50-53 inh | Sa growth inh second temp
7 | COCc1cc(C(C)(C)C)nc(N)n1 | 106 | 3 | 88
8 | COc1ccc(NC(=O)C(C)n2cccc2)cc1 (stereo not given) | 90 | / | 82

Other results:
item	molecule	Sa growth inh	Sa growth inh second temp	GIV Gai3 FP	HCMV UL50-53 inh
21	O=S(=O)(NCc1ccc(-c2cccs2)cc1)c1ccc(N2CCOCC2)nc1	108	90	105	-23
22	CS(=O)(=O)N1CCc2cc(S(=O)(=O)Nc3ccc4c(c3)COC4=O)ccc21	94	63	/	-12
23	Cc1cc(C)c(C(=O)COC(=O)c2ccc(O)cc2)c(C)c1	91	76	/	9
24	CNC(=O)CSc1nnc2c(C)cc3ccc(OC)cc3n12	90	83	99	-26
25	COc1ccc(C(=O)n2nc(-c3ccco3)nc2NCc2cccs2)cc1OC	74	76	112	-1
26	O=C(O)[C@H](Cc1ccc(O)cc1)N1C(=O)c2ccccc2C1=O	96	91	104	-15
27	CCC1CN(C(=O)CCC(=O)NCc2ccc(F)cc2)c2cc(Cl)ccc2O1 (stereo not given)	109	94	105	-14
28	Cc1cc(OCC(=O)N(C2CC2)C2CCS(=O)(=O)C2)ccc1Cl (stereo not given)	76	93	/	-34
29	O=C(Cc1ccccc1)NCc1ccc2c(c1)OCO2	92	97	/	-1
30	O=C(c1ccc2c(=O)nc3c(-c4ccccc4F)n[nH]n3c2c1)N1CCN(C2CCCCC2)CC1	/	/	106	-120
31	CC1Cc2nc(SCC(N)=O)n(C)c(=O)c2S1 (stereo not given)	125	91	108	-7
32	COCOc1ccc(C(=O)CC(=O)c2ccccc2O)cc1	61	32	102	37
33	CCOC(=O)Cc1csc(NC(=O)c2cccs2)n1	98	82	112	-10
34	COc1ccc(C2CC(=O)C3=C(C2)Nc2onc(C)c2C3c2ccc(F)cc2)cc1OC (stereo not given)	/	/	102	-9
35	O=C(NCCc1ccccc1)c1ccc(CSc2nc3cccnc3n2Cc2ccccc2F)cc1	103	103	103	/
36	CC(C)N(Cc1ccccc1)C(=O)Cn1ncc2c3ccccc3n(Cc3ccccc3)c2c1=O	106	92	109	-5
37	CC(=C1C(=O)c2ccccc2C1=O)N1CCC(C(N)=O)CC1	89	84	113	/
38	Cc1c(Cl)cccc1NC(=O)CSc1nc2ncccc2o1	85	92	109	/
39	CC1(C)OC2OC(CO)C(O)C(O)C2O1 (stereo not given)	101	84	99	-50
40	COc1ccc(CCN2CN=C(NS(=O)(=O)c3ccc(C)cc3)NC2)cc1OC	91	83	104&102	-20&-18
41	CCc1ccc(NS(=O)(=O)c2ccc3[nH]cc(C(=O)N4CCCC4)c(=O)c3c2)cc1	110	89	102	/
42	COC(=O)c1ccc(C(=O)Nc2ccc3nc(NC(C)=O)sc3c2)cc1	/	/	107	4
43	CCOc1ccccc1CNc1ccc2cc(S(=O)(=O)N3CCC(C)CC3)ccc2n1	85	92	104	/
44	COc1cccc(C(=O)N2CCCN(c3ccc(=O)n(-c4ccc(C)c(C)c4)n3)CC2)c1	/	/	100	-48
45	COc1ncccc1S(=O)(=O)N1CCCCC1	/	/	103	-15
46	CC(C)NS(=O)(=O)c1ccc2nc(NC(=O)c3cncc(Br)c3)sc2c1	69	85	102	/
47	Cc1cc(N(CCO)CCO)n2nc(-c3ccc(C(C)(C)C)cc3)nc2n1	/	/	104	-19
48	Nc1ccc2c(c1)OCCOCCOCCO2	97	88	/	-79
49	COc1ccc(-c2nc(N3CCCC3)nc3n[nH]c(N)c23)cc1	102	102	107	1
50	Cn1cnnc1SCc1ccc(C(=O)N/N=C2\CCSC2)cc1	74	90	/	-27
51	CSC(N)=Nc1cccc(Cl)c1Cl	99	88	103	-3
52	CSCCn1c(-c2ccccc2)cc(C(=O)N2CCOCC2)c1C	96	85	110	-13
53	CCCN1C(=O)c2cc(C(=O)O)ccc2C1O (stereo not given)	82	77	107	16
54	O=c1[nH]c2ccc(S(=O)(=O)N3CCN(c4cccc(C(F)(F)F)c4)CC3)cc2[nH]1	75	95	/	-10
55	Cc1cc(-c2nn3c(COc4ccc(Cl)cc4)nnc3s2)no1	/	/	105	-15
56	COc1cccc2sc(N3CCN(C(=O)CS(=O)(=O)c4ccc(Cl)cc4)CC3)nc12	135	85	102	/
57	C=CCN1C(=O)CN2c3ccccc3C(C)(C)C12C (stereo not given)	101	87	99	-2
58	Cc1cc(NC(=O)C2CCN(S(=O)(=O)c3c(C)nn(-c4ccccc4)c3C)CC2)no1	/	/	117	-12
59	CC(CN1CCCCC1)OC(=O)C1c2ccccc2Oc2ccccc21 (stereo not given)	112	85	103	/
60	Cc1cc(C)c2c(-n3cccc3)c(C(=O)NCCCN3CCCCC3)sc2n1	112	91	98	-12
61	O=C(NC1CCCCCCC1)C1CCCC1	109	99	108	-7
62	CCN1C(=O)/C(=C/c2ccc(C(C)C)cc2)NC1=S	75	83	97	-13
63	CCOc1ccc(NC(=O)c2ccccc2NC(=O)CN2CCOCC2)cc1	108	103	/	1
64	Cc1nn(CC(=O)N2CCN(c3ccccc3)CC2)c(=O)c2cccn12	118	88	102&101	-16&-19
65	Nc1ccc(-c2nc3c(Cl)c(N)ccc3[nH]2)cc1Cl	107	82	/	5
66	O=C(Nc1noc2c1COc1ccccc1-2)N1CCN(c2ccccc2F)CC1	103	96	105	9
67	CCC(=O)N1CCc2cc(S(=O)(=O)CCC(=O)Nc3cc(Cl)ccc3OC)ccc21	117	88	105	-20
68	Cn1c(C(=O)O)nc2ccccc21	110	77	104	8
69	O=C(Oc1cccc2c1CCC2=O)c1ccccc1	95	52	102	-4
70	CC(=O)Nc1nc2ccc(NC(=O)c3ccc(N)cc3)cc2s1	/	/	105	-8

Going on with the list.
item	molecule	Sa growth inh	Sa growth inh second temp	GIV Gai3 FP	HCMV UL50-53 inh
71	CCOC(=O)c1cc(=O)oc2cc(O)ccc12	104	93	119	-47
72	Cc1ccc2nc(COC(=O)CNC(=O)c3ccc(Br)o3)cc(=O)n2c1	96	83	/	-64
73	CN(Cc1ccccc1)S(=O)(=O)c1ccc2c(c1)CCN2C(=O)CCC(=O)O	101	83	103	-1
74	CNC(=O)NCC(c1ccc(F)cc1)c1c[nH]c2ccccc12 (stereo not given)	/	/	99	-21
75	Cc1ccccc1N1CC(=O)N(c2ccccc2C)CC1=O	/	/	104	-15
76	CC(C)CN1C(=O)C(=Nc2cccnc2)c2ccccc21	99	97	/	1
77	CCOc1ccc(NC(=O)C2CC3CSCN3C23C(=O)Nc2ccccc23)cc1 (stereo not given)	/	/	112	-7
78	COc1ccc(-c2nnco2)cc1	81	100	/	19
79	COc1ccc(-c2nc(CSCC(=O)N3CCN(c4ccccc4)CC3)c(C)o2)cc1	85	89	99	-2
80	CCN(CC)c1ccc2cc(-c3nc(-c4ccccc4)no3)c(=O)oc2c1	108	87	150	/
81	Cc1ccc2c(Cl)cc(Cl)c(OCC(=O)N3CCCC3)c2n1	21	0	/	-13
82	COc1ccccc1N(C)C(=O)CCS(=O)(=O)c1ccc2c(c1)n(C)c(=O)c(=O)n2C	106	91	102	-11
83	CN1CCN(c2ccc(NC(=O)COc3cccc4ccccc34)cc2)CC1	113	98	/	-9

Bioassay records from PubChem BioAssay.
